Screens as filed in PubChem BioAssay.
HSV replic up: HSV replication enhancement; AID 1956; maximum fold increase; HSV replication augmentation in cells, fold increase; hit rate 0.005% among 220,000;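 active = peak rise of 1.5-fold or more in the series; inconclusive = self-fluorescent or not available for retest; tested in PC3 cells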;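 also: first round at 10 µM; read as green reporter fluorescence; hits show the peak of a series up to 25 µM; 1 = signal of infected wells without compound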
PKD1 kinase inh: PKD1 (human) kinase inhibition | hit rate 0.056% among 200,000 | AID 797 | PKD1 kinase fluorescence polarization assay | inhibition, %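 (about 10 µM by stock and volumes)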 | Q15139;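 active = inhibition of 50% or more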;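 also: controls were vehicle for no effect and a reference inhibitor for full effect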
INS promoter inh: TRM-6 insulin promoter activity inhibition; TRM-6 cells (human fetal islet line), insulin promoter-eGFP reporter, imaging; reporter expression induced with tamoxifen; inhibition, % at 2 µM; hit rate 0.9% among 130,000;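 active = inhibition above the mean plus 3 SD, with well images judged a real hit on visual review, cut at about 60% in these data, passing the limit was not always enough; inconclusive = inhibition over the cutoff but images rejected on review; inactive = inhibition not above the cutoff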
RGS16-Gao: regulators of human RGS16-Galphao interaction; O15492+P09471; bead-based flow cytometry RGS16-Galphao binding, fluorescence; actives lie on both sides; binding response (% of control), % at 10 µM; hit rate 0.38% among 220,000; AID 1441;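 active = below 25% or above 175%, edge rows of some plates excepted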;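 also: Galphao activated by GDP with aluminum fluoride before binding; 100% = wells without compound and 0% = beads without RGS; some results beyond the cut were filed as inactive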
Target sequence (O15492 whole entry, looked up): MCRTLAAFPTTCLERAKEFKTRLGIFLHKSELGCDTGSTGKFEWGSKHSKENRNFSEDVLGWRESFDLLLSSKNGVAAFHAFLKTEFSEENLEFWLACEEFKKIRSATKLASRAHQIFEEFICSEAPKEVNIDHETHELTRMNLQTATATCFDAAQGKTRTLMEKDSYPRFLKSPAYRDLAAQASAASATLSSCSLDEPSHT
Target sequence (P09471 whole entry, looked up): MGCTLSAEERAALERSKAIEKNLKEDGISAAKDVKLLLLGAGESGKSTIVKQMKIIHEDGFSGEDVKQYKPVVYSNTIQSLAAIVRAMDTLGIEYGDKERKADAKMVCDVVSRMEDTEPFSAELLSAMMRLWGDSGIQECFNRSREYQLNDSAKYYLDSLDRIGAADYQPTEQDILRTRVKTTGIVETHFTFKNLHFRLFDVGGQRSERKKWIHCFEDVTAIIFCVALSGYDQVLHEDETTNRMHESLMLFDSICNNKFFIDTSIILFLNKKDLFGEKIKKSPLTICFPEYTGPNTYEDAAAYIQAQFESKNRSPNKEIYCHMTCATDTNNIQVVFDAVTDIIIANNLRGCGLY
GALR2 ag: activates the human galanin receptor 2 | O43603 | GALR2-expressing cells, agonist activation read-out | activation, %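 (tested at 5 µM)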 | hit rate 0.48% among 140,000;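 active = above mean plus 3 SD of all compounds, about 5% in these data, not always enough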;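 also: 0% = vehicle buffer wells and 100% = reference agonist at full effect; tested in CHO reporter cells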
Target sequence (O43603 whole entry, looked up): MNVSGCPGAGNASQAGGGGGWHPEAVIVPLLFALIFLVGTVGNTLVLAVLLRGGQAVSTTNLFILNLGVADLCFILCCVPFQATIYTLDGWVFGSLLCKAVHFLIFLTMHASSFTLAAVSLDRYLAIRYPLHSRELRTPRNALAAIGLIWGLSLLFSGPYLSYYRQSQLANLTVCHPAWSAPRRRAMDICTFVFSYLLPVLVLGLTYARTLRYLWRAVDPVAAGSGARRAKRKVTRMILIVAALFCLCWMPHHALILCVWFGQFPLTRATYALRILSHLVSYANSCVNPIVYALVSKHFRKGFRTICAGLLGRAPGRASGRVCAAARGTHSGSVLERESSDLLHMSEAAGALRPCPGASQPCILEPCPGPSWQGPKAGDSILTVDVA
INS promoter inh cell count: further read-out of INS promoter inh, marked with its call; normalized cell count, %; measured here: cell count, toxicity; reference of the scale not given here;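 cells exposed to compound for 48 h; stained nuclei by imaging scaled within each plate; lower means fewer cells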
HSV replic up primary fold: recorded beside HSV replic up, whose call it bears; fold increase; compound at 10 µM; measured here: primary screen fold increase 10 uM; tested in PC3 cells;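 GFP signal in the first replicate; 1 = infected wells without compound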
* = called active by the depositor; i = inactive; ? = inconclusive; . = no result given.

SMILES	HSV replic up	HSV replic up primary fold	PKD1 kinase inh	INS promoter inh	INS promoter inh cell count	RGS16-Gao	GALR2 ag
COc1ccc(C2C(C(=O)NCC3CCCO3)CCC(=O)N2c2ccc3c(c2)OCO3)cc1 (stereo unspecified)	i	0.9	-1	-22	105	98	-1.3
CCCC(=O)Nc1nnc(-c2ccc(Cl)s2)o1	i	0.99	-5	.	.	105	-2.4
Cc1ccc(Cl)cc1NC(=O)COC(=O)c1ccccc1O	i	0.92	.	.	.	102	.
C=CCOc1ccc2nnc(C)n2n1	i	1	-17	17	88	102	-0.7
O=c1c2ccccc2ncn1CCCSc1ccccc1	i	1.1	4	-2	158	102	0.2
COc1ccc(C(=O)Oc2cc(/C=N/NS(=O)(=O)c3ccc(C)cc3)ccc2OC)cc1	.	.	11	.	.	104	-1.7
CCOC(=O)c1cc(-c2ccccc2)n(CC(=O)Nc2ccc(OC)cc2)c1C	i	0.9	-19	24	150	96	0.6
COc1ccccc1CNC(=O)C(C)NS(=O)(=O)c1ccc(C)cc1 (stereo unspecified)	i	0.93	0	-147	90	102	-1.9
COc1ccc(-c2c3c(nc4sc(C(=O)Nc5cc(C)on5)c(N)c24)CCC3)cc1	i	0.83	-13	35	79	100	-0.7
CN1CCN(C(=O)c2cc3nc(-c4ccc(F)cc4)cc(C(F)(F)F)n3n2)CC1	i	0.98	-2	0	145	106	-1.2
CC1CCc2c(C(=O)Nc3ccccn3)csc2C1 (stereo unspecified)	i	0.8	.	.	.	96	.
CC(=O)Nc1ccc(SCC(=O)O)cc1	i	0.9	2	0	106	104	.
COCCCn1c(SCC(=O)Nc2nnc(C)s2)nnc1-c1ccoc1C	i	0.69	-2	.	.	105	-2.7
CC(=O)Nc1cc(S(=O)(=O)Nc2ccccc2C)c(C)cc1C	i	0.88	9	-11	76	75	-0.7
Cc1ccc(C(=O)O)cc1NC(=O)CCc1ccccc1	i	1.1	-1	12	123	98	.
CC/C(C)=C1\SC(N2CCN(C(C)=O)CC2)=NC1=O	i	1	-3	.	.	95	-1.9
O=S(=O)(c1ccc2ccccc2c1)n1cnc2ccccc21	i	0.91	-18	-86	64	97	-1.8
COc1ccc(-c2nc3ccccc3c(=O)n2N)cc1	i	0.81	5	34	158	102	-1.6
O=C(CSc1nc2ccccc2o1)N/N=C/c1ccc(C(=O)O)cc1	i	0.96	.	.	.	97	.
COc1ccccc1N1C(=O)CC(N(O)c2ccccc2)C1=O (stereo unspecified)	i	1.1	.	.	.	106	.
CCN(Cc1cnn(C)c1)Cc1nc(Cc2ccccc2Cl)no1	i	0.94	-2	.	.	101	.
COc1cccc(OC)c1OCCCN1CCOCC1	i	0.9	-12	-21	121	104	-1.6
Cc1ccc(NC(=O)C2(c3ccccc3)CC2(Cl)Cl)cc1C (stereo unspecified)	.	.	8	-41	64	95	-1.3
CC(C)(C)c1cc(CN(CCO)CCO)c(O)c(C(C)(C)C)c1	i	0.87	.	.	.	80	.
O=c1c2cnn(-c3ccccc3)c2nc(-c2cccs2)n1-c1ccc(Cl)cc1	i	0.87	4	15	61	96	-0.9
Cc1nc(SCC(=O)N2CCOCC2)c2ccsc2n1	i	0.93	16	-9	113	102	-2.5
COc1cccc(C2=Nn3c(nnc3-c3ccccc3O)SC2)c1	i	0.9	4	-24	129	90	1.9
COc1ccc(-c2cc(=Nc3ccc(C(=O)O)cc3)c3cc(C)ccc3o2)cc1	i	1	-10	-18	71	102	.
COc1ccc(CN2CCNC(=O)C2CC(=O)N(C)Cc2nccn2C)cc1OC (stereo unspecified)	i	1	3	.	.	94	.
NC(=NC1CCCCC1)c1ccc(Cl)cc1	i	0.87	-5	.	.	101	.
COC(=O)Cn1c(=NC(=O)c2ccc(Cl)s2)sc2cc(C)ccc21	i	1	-5	11	108	56	1.2
Cc1coc(=N)n1CC(=O)c1ccc(Cl)cc1	i	0.99	4	.	.	98	.
CCN(CC)CCn1c(N)nc2ccccc21	i	0.97	.	.	.	101	.
COc1ccccc1Cn1nnc2c(=O)[nH]c(C3CCN(C(=O)c4ccccc4Cl)CC3)nc21	i	0.96	-8	-86	67	105	0.7
COC(=O)c1ccccc1NC(=O)NCc1c(C)nn(C)c1C	i	0.91	5	-13	158	106	.
CCOC(=O)c1cc(NC(=O)Nc2ccc(Br)cc2)c(C)nc1C	i	0.98	-5	12	112	103	.
CC(=O)c1ccc(NC(=S)N(CCCN(C)C)Cc2ccccc2)cc1	i	0.94	.	.	.	102	.
CCC(=O)N(C)CCc1cc2c(c(OC)c1/C=N/Nc1ccc(C(=O)O)cc1)OCO2	i	1	.	.	.	101	.
O=c1[nH]c(-c2ccccn2)cc2ccccc12	i	0.92	-10	67*	165*	105	-0.5
CCC(C)NC(=O)Cn1cnc([N+](=O)[O-])c1 (stereo unspecified)	i	0.89	-4	-65	76	107	.
CCOc1ccc(NC(=O)C2=C(C)NC(=S)NC2c2ccc(O)c(OC)c2)cc1 (stereo unspecified)	i	0.98	-5	-46	73	99	-1.0
CC(=O)Nc1ccc(S(=O)(=O)N[C@@H](C)C(=O)OCc2cc([N+](=O)[O-])cc3c2OCOC3)cc1	i	0.89	.	.	.	100	.
CC(=O)/C(C#N)=C1\NC(=O)C(Cc2ccccc2)S1 (stereo unspecified)	?	.	-4	.	.	103	-1.2
Cc1ccccc1C(=O)N1CCC(C(N)=O)CC1	i	1.1	-5	-13	72	99	-0.8
O=C(/C=C/c1ccc(Cl)cc1)Nn1c(-c2cccs2)nc2ccccc2c1=O	i	0.95	4	7	129	115	-2.5
O=C(CNc1ccccc1)N/N=C/c1ccc([N+](=O)[O-])o1	.	.	5	-21	125	99	-2.2
Cc1ccccc1CS(=O)(=O)Cc1ccc(C(=O)NCCCN2CCOCC2)o1	.	.	-6	16	191	104	-0.6
Cc1nc2c(C)cccn2c1C(=O)N/N=C/c1ccccc1[N+](=O)[O-]	i	0.98	.	.	.	93	.
CCN1CCN(c2nn3c(=O)c4ccccc4nc3c3ccccc23)CC1	i	0.62	-4	-3	96	106	0.6
Cc1ccc(C(C)C)c(OCCNC(=O)c2cncc(Br)c2)c1	i	0.98	2	.	.	96	-2.3
Cc1nnc(SC(C)C(=O)Nc2ncc(Cl)cc2Cl)n1Cc1ccccc1 (stereo unspecified)	i	0.96	-15	-59	36	103	-1.1
C=CCn1c(=O)c2c(nc3n2CCN3c2cccc(Cl)c2C)n(C)c1=O	i	0.84	0	.	.	101	-0.3
O=C1CC(N2CCSCC2)C(=O)N1c1cccc(Cl)c1 (stereo unspecified)	i	0.96	1	.	.	105	.
C/C(=N\NC(=O)c1ccc(NS(=O)(=O)c2cccs2)cc1)c1cccs1	i	0.91	-2	.	.	103	.
Cc1cc(Nc2ccccc2Cl)n2nnnc2n1	i	1	0	23	59	90	-1.3
CC12CS(=O)(=O)CC1SC(=S)N2Cc1ccccc1 (stereo unspecified)	i	0.97	3	31	102	100	.
O=C(CSc1nnc2n(C3CCCC3)c(=O)c3ccccc3n12)N1CCCCCC1	i	0.87	-8	-121	135	97	1.3
COc1ccc(/C(O)=C2/C(=O)C(=O)N(c3ncccn3)C2c2ccc(OC)c(OC)c2)cc1 (stereo unspecified)	i	0.92	-7	.	.	98	-0.8
Cc1nc(C/C(=N\Nc2ccccc2)c2ccc(O)cc2O)cs1	i	1	-3	.	.	97	.
O=C1OC(c2ccc(Cl)cc2)/C(=C(/O)c2ccccc2)C1=O (stereo unspecified)	i	0.98	-5	41	135	99	-3.4

Next section.
SMILES	HSV replic up	HSV replic up primary fold	PKD1 kinase inh	INS promoter inh	INS promoter inh cell count	RGS16-Gao	GALR2 ag
CCN(CC)S(=O)(=O)c1ccc(N2CCOCC2)c(NC(=O)c2cc(=O)[nH]c3ccccc23)c1	i	0.94	-8	.	.	99	.
C(=N\Nc1nn2cnnc2c2ccccc12)/c1ccco1	i	0.9	-2	-22	214	96	.
Cc1oc(C(C)(C)C)cc1C(=O)Nc1ccc2c(c1)OCO2	i	1	.	.	.	99	.
O=C(/C=C/c1ccccc1)NC(N1CCOCC1)C(Cl)(Cl)Cl (stereo unspecified)	i	1.3	4	.	.	98	.
COc1cc(/C=C2\SC(=Nc3ccccc3)N(Cc3ccco3)C2=O)ccc1OC(C)C(=O)O (stereo unspecified)	i	0.84	1	20	115	131	1.0
CCN(CC)c1ccc(S(=O)(=O)N2CCOCC2)cc1NC(=O)c1cc(=O)c2ccccc2o1	i	0.84	2	-18	85	101	.
CCCNC(=S)N1CCC(C(=O)c2ccc3c(c2)OCCO3)CC1	i	1	4	.	.	95	.
COC(=O)c1n[nH]c2ccccc12	i	1.1	-2	.	.	98	-2.6
Nc1nc(N)nc(COc2ccccc2)n1	i	0.58	-1	8	96	101	.
CCN(CC(=O)Nc1sc2c(c1C#N)CCC(C)C2)CC(=O)NC1CCS(=O)(=O)C1 (stereo unspecified)	i	0.95	-6	-36	133	97	.
COc1cc(OC)cc(C(=O)N[C@H](C(=O)OCn2nnc3ccccc3c2=O)C(C)C)c1	i	0.87	-5	.	.	101	.
CCOc1ccc(S(=O)(=O)Nc2nc3ccc(OC)cc3s2)cc1	i	0.88	0	-14	137	100	-2.5

Quoted at random: six records from the list, in no set order.
SMILES	HSV replic up	HSV replic up primary fold	PKD1 kinase inh	INS promoter inh	INS promoter inh cell count	RGS16-Gao	GALR2 ag
COC(=O)Cn1c(=NC(=O)c2ccc(Cl)s2)sc2cc(C)ccc21	i	1	-5	11	108	56	1.2
CCOc1ccc(S(=O)(=O)Nc2nc3ccc(OC)cc3s2)cc1	i	0.88	0	-14	137	100	-2.5
CCN1CCN(c2nn3c(=O)c4ccccc4nc3c3ccccc23)CC1	i	0.62	-4	-3	96	106	0.6
COc1ccc(-c2nc3ccccc3c(=O)n2N)cc1	i	0.81	5	34	158	102	-1.6
CCCC(=O)Nc1nnc(-c2ccc(Cl)s2)o1	i	0.99	-5	.	.	105	-2.4
C=CCOc1ccc2nnc(C)n2n1	i	1	-17	17	88	102	-0.7

Continued:
SMILES	HSV replic up	HSV replic up primary fold	PKD1 kinase inh	INS promoter inh	INS promoter inh cell count	RGS16-Gao	GALR2 ag
CC(=O)N1c2c(cc(Br)cc2S(=O)(=O)Nc2c(C)n(C)n(-c3ccccc3)c2=O)CC1C (stereo unspecified)	i	1	4	-19	70	98	.
CSc1nc(NCc2ccco2)c2c3c(sc2n1)CN(C)CC3	i	1	5	-61	78	80	-1.2
Cc1cc(OCC(=O)N(C)C2CCCCC2)ccc1Cl	i	0.96	-3	.	.	101	.
COc1cc(OC)nc(NC(=O)CSc2nc3ccccc3o2)n1	i	0.97	-6	-427	62	86	-2.3
O=C(CCn1nnc2ccccc2c1=O)NCC1CCC(C(=O)O)CC1 (stereo unspecified)	i	0.86	-10	-14	125	102	-1.1
c1ccc(-c2cc(-c3ccccc3)n3ncnc3n2)cc1	i	0.95	4	69*	82*	100	.
CC(C)=Cc1c(O)nc2ccccn2c1=O	i	0.93	-3	-7	99	62	.
CC(C)OC(=O)CN1CCN(c2ccc(Cl)cc2)CC1	.	.	9	7	114	102	.
CCOC(=O)N1CCN(C(=O)CSCc2ccc(Cl)cc2)CC1	i	0.94	-17	15	124	111	-1.2
OCCCCNCc1ccc(OCc2ccccc2)cc1	i	0.82	-4	.	.	105	-0.7
S=C(Nc1ccccc1Cl)NC1CC2CCCC(C1)N2C1CC1 (stereo unspecified)	i	0.97	2	.	.	105	.
O=C(O)c1csc(-c2ccc(Cl)cc2)n1	i	0.93	7	7	194	116	.
CCC(OC(=O)c1nsc(Cl)c1Cl)C(=O)NCc1cccs1 (stereo unspecified)	i	0.82	-6	-233	115	.	-0.5
CC(C)(C)NC(=S)NNC(=O)c1ccncc1	i	0.88	-5	6	96	99	-1.7
Cc1ccc(NC(=O)CCSc2nnnn2-c2ccc3c(c2)OCO3)cc1C	i	1.2	-2	-10	147	99	-2.7
O=C(c1ccc(Cl)cc1)N1CCC(O)(CSc2ccc(Cl)cc2)CC1	i	0.9	2	.	.	102	-3.2
COc1cc(NC(=O)C2CCCCC2)c(OC)cc1NC(=O)CCC(=O)NCc1ccco1	i	0.71	-5	.	.	181	-2.4
COc1ccc(CNC(=S)Nc2ccc3nc(N4CCOCC4)cc(C)c3c2)cc1	i	0.93	-4	29	137	100	.
CSc1c(C#N)c(N)nc2sc(C(=O)c3ccc(Cl)c(Cl)c3)c(N)c12	i	1	.	.	.	101	.
Cc1cc(=O)oc(C)c1C(=O)Nc1ccc(Cl)cn1	i	1	-10	2	110	103	-2.6
Cc1c(C(=O)N2CCN(c3ccccc3F)CC2)sc2nc(-c3ccccc3)cn12	i	0.81	-11	.	.	101	-1.5
